Source: PubChem BioAssay (Broad Institute)
AF4-AF9 inh: inhibitors of human MLL-AF4/AF9 interaction; 0.47% of 350,000 active; AID 651704; AlphaScreen, biotin-AF4 peptide binding to FLAG-AF9; P42568; inhibition, % at 10 µM;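 active = every replicate reaching a set inhibition limit, whatever the replicate mean, cut at about 25% in these data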;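 note: 0% = plate neutral control median and 100% = total signal loss; the record names both 10 and 1 µM as test concentration; the first replicate is given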
Target sequence (P42568 whole entry, looked up): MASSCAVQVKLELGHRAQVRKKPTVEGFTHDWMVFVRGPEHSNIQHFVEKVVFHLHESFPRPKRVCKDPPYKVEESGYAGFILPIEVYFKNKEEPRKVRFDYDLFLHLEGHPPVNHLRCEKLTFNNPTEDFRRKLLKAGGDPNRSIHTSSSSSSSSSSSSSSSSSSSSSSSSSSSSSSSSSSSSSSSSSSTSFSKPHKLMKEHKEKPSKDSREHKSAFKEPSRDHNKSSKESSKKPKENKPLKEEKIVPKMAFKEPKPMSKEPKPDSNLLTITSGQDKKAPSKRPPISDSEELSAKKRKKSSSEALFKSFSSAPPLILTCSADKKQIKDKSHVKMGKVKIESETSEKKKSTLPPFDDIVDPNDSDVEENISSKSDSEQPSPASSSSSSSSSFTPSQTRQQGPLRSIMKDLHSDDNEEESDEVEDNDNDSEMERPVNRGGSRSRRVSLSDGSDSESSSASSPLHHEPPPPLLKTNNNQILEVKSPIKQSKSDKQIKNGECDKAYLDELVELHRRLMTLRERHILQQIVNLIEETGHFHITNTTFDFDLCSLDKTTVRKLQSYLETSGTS
Ecoli rRNA inh: inhibitors of bacterial rRNA selective over humanized ribosomes; 1.6% of 350,000 active; GFP signal change (wild-type ribosome), % (concentration not given with the values); E. coli WT GFP vs humanized-ribosome RFP mutants, fluorescence, 24 h; hits give low values; DMSO median 0, no signal -100;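 active = significant combined selectivity score with lowered wild-type GFP, culture density cut under 30%, mutant RFP and density less affected; inactive = any of these conditions unmet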; note: one replicate is shown; some compounds called inactive have numbers as strong as hits
FGF22 binding: shifts melting point of recombinant human FGF22. Q9HCT0. recombinant FGF22 thermal shift, SYPRO orange fluorescence; percent of sucrose octasulfate shift, DMSO zero. calls only at 9.99 µM. 1.5% of 340,000 active. AID 651658;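 active = melting point raised past a set limit in the mean and every replicate; three in four hits are not shown here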
Target sequence (Q9HCT0 whole entry, looked up): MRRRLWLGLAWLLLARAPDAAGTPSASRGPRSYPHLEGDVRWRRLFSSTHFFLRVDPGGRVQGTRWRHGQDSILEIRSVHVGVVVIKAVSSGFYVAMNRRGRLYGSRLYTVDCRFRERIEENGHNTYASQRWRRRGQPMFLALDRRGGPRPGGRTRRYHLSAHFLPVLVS
Ecoli rRNA inh OD600: recorded beside Ecoli rRNA inh, whose call it bears; OD600 change, %; measured here: OD600 growth;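 optical density of the mix in the first replicate; 0 = DMSO median and -100 = no signal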
Ecoli rRNA inh RFP: recorded beside Ecoli rRNA inh, whose call it bears; RFP signal change, %; measured here: RFP humanized mutant strains;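 first replicate; 0 = DMSO median and -100 = no signal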
Active calls of the source: *; i = inactive; & = joins results of further samples. The list is partial (hit frequency here may not be typical).

SMILES	AF4-AF9 inh	Ecoli rRNA inh	Ecoli rRNA inh OD600	Ecoli rRNA inh RFP	FGF22 binding
O=C(NCC1CCCCC1)[C@@H]1[C@@H](CO)[C@@H]2Cn3c(cccc3=O)[C@H]1N2C(=O)c1ccncc1	-1.1	1	8	-0.6	i
CN(C)C(=O)c1ccc(-c2ccc([C@@H]3[C@@H](CO)N(C(=O)C4CCCCC4)[C@H]3C#N)cc2)cc1	1.4	-1	5	3.2	i
C[C@@H]1CCCCO[C@H](CN(C)S(=O)(=O)c2ccc(F)cc2)[C@@H](C)CN([C@@H](C)CO)C(=O)c2cc(NS(C)(=O)=O)ccc2O1	-0.6	-3	-4	-0.6	i
CCCS(=O)(=O)NC(=O)C1(C)CCN(C(=O)c2ccc(OC(F)F)cc2)C1 (centres undefined)	-1.0	5	7	-0.6	i
O=C(C[C@@H]1C[C@H]2c3cc(NC(=O)NC4CCCC4)ccc3O[C@H]2[C@H](CO)O1)NCc1ccccc1	-3.0	-5	-9	2.1	i
COc1ccc(NC(=O)N(C)C[C@@H]2OCc3cn(nn3)CCCC(=O)N([C@H](C)CO)C[C@@H]2C)c(OC)c1	3.1	3	8	-1.6	i
CN(C)CC(=O)Nc1ccc2c(c1)[C@@H]1C[C@H](CC(=O)NCc3cccc(F)c3)O[C@@H](CO)[C@@H]1O2	1.3	4	8	-0.3	i
C[C@@H]1CCCCO[C@@H](CN(C)S(=O)(=O)c2ccc(F)cc2)[C@@H](C)CN([C@@H](C)CO)C(=O)c2cc(NC(=O)c3ccccc3)ccc2O1	-0.7	0	1	-1.7	i
COc1ccc(CN(C)C[C@@H]2OCCCC[C@H](C)Oc3ccc(NC(=O)C4CCCCC4)cc3C(=O)N([C@H](C)CO)C[C@H]2C)cc1	-3.1	2	-2	-1.0	i
CC(C)NC(=O)Nc1ccc2c(c1)C(=O)N([C@H](C)CO)C[C@H](C)[C@@H](CN(C)Cc1ccc3c(c1)OCO3)OCCCC[C@@H](C)O2	-1.0	5&2	-2&6	0.2&2.3	i
CN1C(=O)c2cc(NC(=O)Cc3cccs3)ccc2OC[C@@H]2O[C@@H](CC(=O)N[C@H]3CCN(Cc4ccccc4)C3)CC[C@H]21	4.8	3	8	-1.9	i
C[C@@H]1CCCCO[C@@H](CN(C)S(=O)(=O)c2ccccc2)[C@@H](C)CN([C@H](C)CO)C(=O)c2cc(NC(=O)Nc3ccc(F)cc3)ccc2O1	0.7	2	4	-0.9	i
COc1ccc(NC(=O)N(C)C[C@H]2OCc3cnnn3CCCC(=O)N([C@H](C)CO)C[C@H]2C)c(OC)c1	9.6	-2	-2	-1.4	i
COc1ccc(CN(C)C[C@H]2OCCCC[C@H](C)Oc3ccc(NC(=O)NC(C)C)cc3C(=O)N([C@@H](C)CO)C[C@@H]2C)cc1	-2.4	1	-2	-4.5	i
C[C@H](CO)N1C[C@H](C)[C@@H](CN(C)C(=O)C2CCC2)Oc2ncc(C#CCc3ccccc3)cc2C1=O	0.1	3	10	-0.1	i
COCC#Cc1ccc2c(c1)O[C@H](CN(C)S(=O)(=O)c1ccc(C)cc1)[C@@H](C)CN([C@@H](C)CO)S2(=O)=O	1.3	-3	-8	5.3	i
O=C1N(c2ccccc2)c2ccccc2[C@]12C[C@H](O)CO2	-0.4	12	8	2.6	i
C[C@H](CO)N1C[C@H](C)[C@@H](CN(C)C(=O)Nc2ccc(F)cc2)OCCCC[C@H](C)Oc2ccc(NC(=O)Nc3ccccc3)cc2C1=O	-0.2	-2	1	0.5	i
C[C@H](CO)N1C[C@H](C)[C@H](CN(C)Cc2ccc(Oc3ccccc3)cc2)Oc2ccc(NC(=O)CCC(F)(F)F)cc2C1=O	3.2	-9	-37	27	i
CO[C@H]1CN(C)C(=O)c2cc(NC(=O)c3cc(C)on3)ccc2OC[C@@H](C)N(C)C[C@@H]1C	-1.2	1	-2	-1.1	i
C[C@H]1CN([C@@H](C)CO)C(=O)c2cccc(NC(=O)c3cnccn3)c2O[C@@H]1CN(C)C(=O)Nc1ccc(F)cc1	-2.7	7	6	0.4	i
COC(=O)C[C@H]1C[C@H]2c3cc(NC(=O)C4CCC4)ccc3O[C@H]2[C@H](CO)O1	-1.6&-8.8	-2&0	1&-3	2.9&-1.4	i
C/C=C/c1ccc2c(c1)O[C@H](CN(C)C(=O)CC1CC1)[C@@H](C)CN([C@@H](C)CO)S2(=O)=O	3.4	-2	-5	-5.6	i
COc1ccc(NC(=O)Nc2cccc3c2O[C@H](CN(C)S(=O)(=O)c2ccc(C)cc2)[C@H](C)CN([C@@H](C)CO)C3=O)cc1	3.2	-19*	-6.4*	4.1*	i
CCCN(C)C[C@H]1Oc2cc(C#Cc3ccccc3OC)ccc2S(=O)(=O)N([C@@H](C)CO)C[C@H]1C	6.5	2	-2	6.8	i
CS(=O)(=O)Nc1ccc2c(c1)[C@@H]1C[C@H](CC(=O)NCC3CC3)O[C@H](CO)[C@@H]1O2	1.1	6	1	-0.3	i
C[C@H](CO)N1C[C@H](C)[C@@H](CN(C)C(=O)NC2CCCCC2)Oc2cc(/C=C/c3ccccc3)ccc2S1(=O)=O	7.1	-2	9	-1.3	i
CC(C)C[C@H]1CN([C@@H](CC(C)C)CN2CCC[C@H]2CN2C(=O)C(=O)NC[C@@H]2Cc2ccc(O)cc2)C(=O)C(=O)N1CC1CCCCCC1	0.0	5	5	-1.4	i
C[C@H](CO)N1C[C@H](C)[C@H](CN(C)Cc2ccc(-c3ccccc3)cc2)Oc2ccc(NS(=O)(=O)c3cccs3)cc2CC1=O	-1.2	-3	-4	-0.6	i
O=C(CCN1CCCCC1)NCC[C@H]1CC[C@@H](NC(=O)c2ccc(F)cc2)[C@H](CO)O1	-3.5	4	7	2.2	i
O=C(C[C@@H]1CC[C@H]2[C@@H](COC[C@@H](O)CN2Cc2ccc(C(F)(F)F)cc2)O1)NCCc1ccccc1	-3.5	5	2	4.2	i
C[C@@H]1CCCCO[C@H](CN(C)Cc2ccncc2)[C@@H](C)CN([C@@H](C)CO)C(=O)c2cc(NS(=O)(=O)c3ccccc3)ccc2O1	-6.0	-2	3	0.1	i
C[C@H]1CN([C@@H](C)CO)C(=O)c2cc(NC(=O)CCN3CCOCC3)ccc2O[C@H]1CN(C)Cc1ccc2c(c1)OCO2	-1.0	4	5	-2.7	i
O=C(C[C@@H]1CC[C@@H]2[C@H](COC[C@H](O)CN2Cc2ccc(F)cc2)O1)NCc1ccccc1Cl	0.6	-2	-12	-2.8	i
O=C(C[C@H]1C[C@H]2c3cc(NC(=O)NC4CCCC4)ccc3O[C@H]2[C@H](CO)O1)NC1CCCCC1	0.6	2	3	-1.4	i
C[C@@H]1CN([C@@H](C)CO)S(=O)(=O)c2ccc(-c3cccnc3)cc2O[C@H]1CN(C)C(=O)c1cccc(F)c1	5.4	-4	-5	-3.3	i
O=S(=O)(N[C@H]1CC[C@H](CCNS(=O)(=O)c2ccccc2Cl)O[C@@H]1CO)c1ccccc1	-0.2	-5	-6	0.9	i
COc1ccccc1S(=O)(=O)N[C@@H]1CC[C@@H](CC(=O)N2CCCCC2)O[C@@H]1CO	-12	0	3	0.4	i
O=C(O)c1ccccc1C(=O)c1cccc2c(F)cccc12	-2.7	-13	-17	-4.4	i
CO[C@H]1CN(C)C(=O)c2cc(NC(=O)C3CCC3)ccc2OC[C@@H](C)N(Cc2nccs2)C[C@@H]1C	1.3	0	8	-1.9	i

Brought forward from above: three entries, followed by the next part.
SMILES	AF4-AF9 inh	Ecoli rRNA inh	Ecoli rRNA inh OD600	Ecoli rRNA inh RFP	FGF22 binding
COc1ccccc1S(=O)(=O)N[C@@H]1CC[C@@H](CC(=O)N2CCCCC2)O[C@@H]1CO	-12	0	3	0.4	i
O=C(O)c1ccccc1C(=O)c1cccc2c(F)cccc12	-2.7	-13	-17	-4.4	i
CO[C@H]1CN(C)C(=O)c2cc(NC(=O)C3CCC3)ccc2OC[C@@H](C)N(Cc2nccs2)C[C@@H]1C	1.3	0	8	-1.9	i
C[C@H](CO)N1C[C@H](C)[C@@H](CN(C)C(=O)Nc2cccc3ccccc23)Oc2ccc(NC(=O)c3ccncc3)cc2CC1=O	2.2	-10	-20	1.6	i
C[C@@H]1CN([C@H](C)CO)C(=O)c2cc(NS(=O)(=O)c3cn(C)cn3)ccc2O[C@H]1CN(C)S(C)(=O)=O	-1.8	2	9	-2.1	i
O=C1NC[C@@H](CCCCN2C[C@H](Cc3ccccc3)N(CCc3ccccc3)C(=O)C2=O)N(Cc2ccccc2)C1=O	15	-15	-17	2.7	i
CCNC(=O)C[C@@H]1CC[C@H]2[C@H](COc3ccc(NC(=O)Nc4ccc(F)cc4)cc3C(=O)N2C)O1	0.5	1	2	-2.9	i
C[C@H](CO)N1C[C@H](C)[C@@H](CN(C)Cc2ccc3c(c2)OCO3)Oc2c(NC(=O)Nc3ccccc3)cccc2C1=O	-6.4	-5	-7	1.8	i
Cc1cn([C@H]2C[C@H](O)[C@@H](CNCc3ccc(-c4cc(Cl)ccc4C(F)(F)F)o3)O2)c(=O)[nH]c1=O	-3.0	-10	-13	6.8	i
CC(C)CC#Cc1cnc2c(c1)C(=O)N([C@H](C)CO)C[C@H](C)[C@H](CN(C)C(=O)c1ccc(F)cc1)O2	0.2	-2	-9	2.3	i
CC(C)(C)OC(=O)N1CCN(C(=O)c2[nH]cnc2C(=O)Nc2ccccc2F)CC1	-0.5	3	-5	11	i
COc1ccc(CNC(=O)C[C@@H]2C[C@@H]3c4cc(NS(=O)(=O)c5ccc(F)cc5)ccc4O[C@@H]3[C@@H](CO)O2)cc1	-1.6	3	-19	-0.6	i
COc1ccc(NC(=O)N(C)C[C@@H]2OCc3ccccc3-c3ccccc3C(=O)N([C@H](C)CO)C[C@H]2C)cc1	0.9	-2	9	1.0	i
CO[C@H]1CN(C)C(=O)c2ccc(NS(=O)(=O)c3ccc(Cl)cc3)cc2OC[C@@H](C)N(C)C[C@@H]1C	-0.3	0	2	-2.5	i
CC(CNC(=O)[C@@H](Cc1ccccc1)NC(=O)CC[C@H]1O[C@@H](n2ccc(=O)[nH]c2=O)[C@H](O)[C@@H]1O)c1ccccc1 (some centres undefined)	0.0	13	13	-1.7	i
CCCc1ccc2c(C)cccc2n1	-0.7	4	6	9.9	i
CCC(=O)N1C[C@H](C)[C@@H](OC)CN(C)C(=O)c2ccc(NC(=O)CC(F)(F)F)cc2OC[C@@H]1C	-1.4	4	5	0.9	i
Cc1noc(C)c1S(=O)(=O)N(C)C[C@@H]1OCCCC[C@@H](C)Oc2ccc(NS(=O)(=O)c3cccs3)cc2C(=O)N([C@H](C)CO)C[C@H]1C	4.3	3	1	6.6	i
O=S1(=O)CC(N2CCN(CCO)CC2)CN1CCc1ccccc1 (centres undefined)	-2.0	6	18	-1.9	i
C/C=C/c1ccc2c(c1)O[C@@H](CN(C)C(=O)c1ccccc1)[C@@H](C)CN([C@@H](C)CO)S2(=O)=O	-0.2	-2	-5	-1.8	i
C[C@@H]1CCCCO[C@@H](CN(C)Cc2ccncc2)[C@@H](C)CN([C@H](C)CO)C(=O)c2cc(NC(=O)c3ccncc3)ccc2O1	-1.4	0	2	-1.0	i
O=C(NC[C@H]1N[C@H](CO)[C@@H]1c1ccccc1)C1CC1	-1.5	-1	-7	-2.3	i
O=C(CC(F)(F)F)N1C[C@@H]2[C@H](c3ccccc31)[C@H](CO)N2Cc1cccnc1	-0.4	4	-4	1.8	i
COc1ccc(NC(=O)Nc2ccc3c(c2)CC(=O)N([C@H](C)CO)C[C@@H](C)[C@H](CN(C)Cc2ccncc2)O3)cc1	-1.0	0	-1	-0.3	i
CC(C)C[C@H]1COc2cc(N3CCCC3)ccc2S(=O)(=O)N1	-0.6	9	0	0.9	i
CNC[C@@H]1Oc2ccc(NS(=O)(=O)c3ccc(OC)cc3)cc2CC(=O)N([C@@H](C)CO)C[C@@H]1C	-5.1	1	3	1.7	i
C[C@@H]1CN([C@H](C)CO)C(=O)c2cc(NC(=O)NC3CCCCC3)ccc2O[C@@H](C)CCCCO[C@@H]1CN(C)C(=O)c1ccccc1	-1.4	-2	-10	2.2	i
C[C@@H]1CN([C@H](C)CO)C(=O)c2cc(NC(=O)Nc3ccccc3)ccc2O[C@@H]1CN(C)C(=O)Nc1ccc(C(F)(F)F)cc1	2.1	-7	-12	2.7	i

Three records drawn at random from the list so far, as already listed:
SMILES	AF4-AF9 inh	Ecoli rRNA inh	Ecoli rRNA inh OD600	Ecoli rRNA inh RFP	FGF22 binding
O=C(NCC1CCCCC1)[C@@H]1[C@@H](CO)[C@@H]2Cn3c(cccc3=O)[C@H]1N2C(=O)c1ccncc1	-1.1	1	8	-0.6	i
C[C@@H]1CN([C@H](C)CO)C(=O)c2cc(NC(=O)NC3CCCCC3)ccc2O[C@@H](C)CCCCO[C@@H]1CN(C)C(=O)c1ccccc1	-1.4	-2	-10	2.2	i
C[C@@H]1CN([C@H](C)CO)C(=O)c2cc(NS(=O)(=O)c3cn(C)cn3)ccc2O[C@H]1CN(C)S(C)(=O)=O	-1.8	2	9	-2.1	i
